Source: PubChem BioAssay
Mtb growth: M. tuberculosis H37Rv growth inhibitors, H37Rv strain (AID 1626); M. tuberculosis H37Rv growth inhibition; higher % means a stronger effect; inhibition, % at 10 µM; hits with a dose series show IC50 in µM; 220,000 compounds, 0.95% hits;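 active = confirmed in a dose series; inconclusive = inhibition above 80% but not taken into the dose series; inactive = below 80% or under 30% at every dose of the series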;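 also: bacteria incubated seven days before Alamar blue readout; 0% = bacteria only wells and 100% = bacteria with antibiotic wells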
Arbovirus anti: antivirals against arbovirus infection; arbovirus infection cell-based antiviral screen; inhibition, % at 10 µM; 200,000 compounds, 0.37% hits;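 active = inhibition from about 30%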;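 also: bluetongue infection of BSR cells; cell survival read as ATP light after 72 h; 0% = infected wells without compound and 100% = uninfected wells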
RecA splice inh: inhibitors of M. tuberculosis RecA intein splicing; cell-free RecA intein splicing, fluorescence; inhibition, %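 (about 9 µM by stock and volumes)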; 290,000 compounds, 0.75% hits; AID 2221; in the data active = inhibition above about 30%; inconclusive = no clear call, values can overlap the other calls;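 also: 0% = vehicle wells and 100% = reference inhibitor control wells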
Target sequence (P9WHJ3 whole entry, looked up, canonical isoform): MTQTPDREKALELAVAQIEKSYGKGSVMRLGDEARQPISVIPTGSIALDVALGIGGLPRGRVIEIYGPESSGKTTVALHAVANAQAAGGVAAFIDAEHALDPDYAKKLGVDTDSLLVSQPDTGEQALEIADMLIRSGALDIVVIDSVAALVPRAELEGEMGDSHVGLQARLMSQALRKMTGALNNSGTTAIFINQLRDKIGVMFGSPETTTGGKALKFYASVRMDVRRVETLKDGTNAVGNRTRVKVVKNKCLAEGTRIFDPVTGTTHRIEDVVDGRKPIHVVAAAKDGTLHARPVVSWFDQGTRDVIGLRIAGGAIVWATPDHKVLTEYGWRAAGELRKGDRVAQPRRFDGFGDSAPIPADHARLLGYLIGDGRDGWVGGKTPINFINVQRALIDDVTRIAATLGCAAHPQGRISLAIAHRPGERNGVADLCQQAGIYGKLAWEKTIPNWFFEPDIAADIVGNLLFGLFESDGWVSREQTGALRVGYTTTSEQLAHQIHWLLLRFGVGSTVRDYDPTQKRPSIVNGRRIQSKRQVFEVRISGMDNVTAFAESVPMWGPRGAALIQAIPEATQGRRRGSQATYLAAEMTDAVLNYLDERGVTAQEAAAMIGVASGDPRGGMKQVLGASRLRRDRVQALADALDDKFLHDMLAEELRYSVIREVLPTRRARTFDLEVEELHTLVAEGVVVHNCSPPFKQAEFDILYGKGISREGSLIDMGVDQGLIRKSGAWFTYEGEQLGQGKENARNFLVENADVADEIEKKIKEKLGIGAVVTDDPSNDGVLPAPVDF
Mtb bLac sens: beta-lactam sensitization of Mtb H37Rv; M. tuberculosis H37Rv growth with meropenem, percent inhibition; hits of this screen are not shown here; inhibition, % at 25 µM; 330,000 compounds, 0.27% hits; AID 434955;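 active = about 74% or more and at least 40 points above the plate without the antibiotic, then above 30% in a dose series; inconclusive = first-round hits that could not be retested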;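 also: growth measured after seven days incubation then overnight dye step; 0% = bacteria only wells and 100% = bacteria with antibiotic; twin plates without the antibiotic show which effects depend on it; some results filed as inactive read as strong as hits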
YopH PTP inh: blocks Yersinia enterocolitica YopH tyrosine phosphatase. inhibition, %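 (about 10 µM by stock and volumes)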. fluorescence Ex485/Em525. AID 898. 140,000 compounds, 0.16% hits;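 active = inhibition of 50% or more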;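 also: controls were vehicle for no effect and minimum signal wells for full effect; inactives centre near -20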
An asterisk follows results filed as active; ? = inconclusive; · = no result given. An excerpt; count on the stated rates, not on these rows.

Values run as follows: Mtb growth, Arbovirus anti, RecA splice inh, Mtb bLac sens, YopH PTP inh
- CC(=O)Nc1ccc2c(c1)nc1n2CCN(C(C)c2ccccc2)C1 (stereo unspecified)
  5.8%, -0.3, 3.4, -2.2, ·
- CCC(C)NC(=O)Cn1nc([N+](=O)[O-])c(Cl)c1C (stereo unspecified)
  -3.1%, 0.7, ·, -4.1, -39.6
- CCOC(=O)CN1C(=O)N[C@@H](CCc2ccccc2)[C@H](C(=O)OC)[C@H]1C
  -8.5%, ·, 1.5, -10.5, ·
- CCOc1ccccc1C(=O)NN1C(=O)CCC1=O
  8.5%, 1.7, -4.3, 4.8, -0.1
- O=C(Nc1ccc(Cl)cn1)C1CCCN(c2ncnc3c2nc2n3CCCCC2)C1 (stereo unspecified)
  ·, ·, 1.9, 98.7, ·
- CN(CC(=O)Nc1ccccc1Br)C(=O)C(Cc1ccccc1)NC(=O)c1ccccc1 (stereo unspecified)
  ·, ·, 2.2, -14.4, ·
- CCCNC(=O)c1n[nH]c(=O)c2ccccc12
  1.9%, -2.6, 1.6, -6.5, -31.8
- CC(=O)c1cccc(NC(=O)Cn2nc(-c3ccc(Cl)cc3)ccc2=O)c1
  -9.8%, -7.4, -2.5, 0.5, ·
- Cc1ccccc1-n1c(N)c(C(=O)Nc2ccc(F)cc2)sc1=S
  2.0%, 15.3, 3.7, -0.2, ·
- COC(=O)c1[nH]c2ccc(Cl)cc2c1NC(=O)CN1CCc2cc(OC)c(OC)cc2C1
  32.8%, -1.4, 3.4, 99.5, -43.2
- Cc1ccc(OCCOc2cccc(C=C3C(=O)NC(=O)NC3=O)c2)cc1
  ·, ·, -0.9, 15.6, ·
- COc1ccc(CCN(C)C2CCCN(C(=O)CCC(F)(F)F)C2)cc1OC (stereo unspecified)
  ·, ·, -5.5, -1.5, ·
- O=S(=O)(N1CCCCC1)N1CCN(c2cc(Cl)ccc2Cl)CC1
  -2.7%, -13.8, ·, -0.1, ·
- Cc1ccccc1C(=O)Nc1ccccc1N1CCN(C(=O)c2ccccc2)CC1
  ·, ·, 6.9, ?, ·
- Brc1ccc(-c2csc(-c3ccncc3)n2)cc1
  40.3%, 1.8, 4.0, 69.4, -23.0
- COc1ccccc1-c1noc(-c2ccccc2C(=O)Nc2cccnc2)n1
  -5.2%, -5.8, 4.4, -7.0, -12.8
- Cc1ccccc1NC(=O)c1onc2c1CCCC2
  1.0%, -2.7, -0.1, 21.1, -2.5
- CCN(Cc1ccccc1)C(=O)c1ccc2c(=O)n3c(nc2c1)CCC3
  ·, ·, -1.7, -6.6, ·
- CSc1ccc(CN2CCC(CO)(CCOc3ccccc3)CC2)cc1
  ·, ·, 1.0, -2.2, ·
- COc1cccc(/C=C/C(=O)OCC(=O)Nc2ccccc2Sc2ccccc2)c1
  17.6%, -3.0, 9.9, 66.2, 2.1
- O=C(O)c1ccc(OCC(O)Cn2cnc3ccccc32)cc1 (stereo unspecified)
  0.8%, -1.5, 4.0, 1.3, -29.3
- CC(=O)Nc1c(-c2ccc(F)cc2)nc2ccccn12
  0.1%, -3.9, 1.0, 1.5, -46.6
- CCOc1cc(/C=N/NC(=O)c2ccc3c(c2)OCCO3)cc(Br)c1O
  ·, ·, -0.9, 8.3, ·
- COc1ccc(Cc2nc3ccc(C(=O)N4CCCCC4CCO)cc3o2)cc1 (stereo unspecified)
  ·, ·, 0.1, 5.0, ·
- Nc1ccc(C23CC4CC(CC(O)(C4)C2)C3)cc1
  -6.0%, 1.5, 0.4, -4.9, -48.2
- COc1cc(/C=C2\SC(=S)N(NC(=O)c3ccc(O)c(OC)c3)C2=O)ccc1O
  ·, ·, -1.5, -1.4, ·
- COc1ccc(C(=O)Nc2ccncc2)c(OC)c1
  4.1%, 4.7, -7.7, 3.0, ·
- Cc1cc(N(C)C)c(C#N)c(N2CCCCC2)n1
  -0.9%, 2.3, -1.4, 4.2, -7.2
- CC(C)CN(C(=O)COC(=O)c1nc(Cl)ccc1Cl)C1CCS(=O)(=O)C1 (stereo unspecified)
  -1.9%, -0.6, 1.1, 1.2, ·
- COc1ccc(CCC(=O)Nc2nc(-c3ccncc3)cs2)cc1
  -10.7%, 9.0, 4.1, 3.0, ·
- CC(C)OCCCNC(=O)C1CCN(S(=O)(=O)N2CCCC2)CC1
  -5.3%, 10.0, -2.1, -2.1, ·
- CSc1nnc2c(n1)OC(c1ccsc1)N(C(C)=O)c1ccccc1-2 (stereo unspecified)
  7.5%, 6.1, -4.1, -11.2, -86.3
- CC(=O)Nc1ccc(Nc2cc(N3CCOCC3)c3nonc3c2[N+](=O)[O-])cc1
  3.8%, -4.7, 3.4, -1.4, ·
- N#Cc1c(NC(=S)NC(=O)c2ccccc2)sc2c1CCCC2
  0.5%, 11.3, 0.1, 3.4, -30.1
- CCCNC(=O)c1ccc(N2CC3CC(C2)c2cccc(=O)n2C3)c(NC(=O)Nc2ccc(CC)cc2)c1 (stereo unspecified)
  ·, ·, -20.6, 57.2, ·
- Cc1ccc(C(=O)NCC#N)cc1
  -0.6%, 15.3, -0.6, 2.5, ·
- Cc1ccc(NS(=O)(=O)c2cc(C(=O)NCc3ccccn3)ccc2Cl)cc1C
  4.5%, -10.5, 2.0, 1.9, -45.6
- CCc1ccccc1NC(=O)Nc1cc(F)ccc1F
  4.7%, 2.7, 3.3, 0.5, ·
- CCC(C)c1ccccc1NC(=O)C1CCCO1 (stereo unspecified)
  -9.8%, 0.3, -0.2, 8.4, 10.9
- O=C(c1ccc2c(c1)OCCO2)N1CCN(c2ccc([N+](=O)[O-])cc2)CC1
  1.9%, 5.0, 0.7, -1.0, ·
- CCOC(=O)C1(C)NC(c2ccc(O)cc2)C2C(=O)N(c3ccccc3)C(=O)C21 (stereo unspecified)
  ·, ·, -4.8, -1.9, ·
- CCn1c(=O)cc(OCC(=O)Nc2ccc3c(c2)OCCO3)c2ccccc21
  -0.1%, 0.2, -3.1, ?, -34.0
- COc1ccc(C(=O)Oc2ccc(C(=S)N3CCOCC3)cc2)cc1
  7.4%, 0.0, -2.1, 5.0, ·
- CCC1Nc2ccccc2-c2nnc(SC)nc2O1 (stereo unspecified)
  0.3%, 3.8, 0.8, -2.2, -18.2
- CCOC(=O)/C(=C\c1cccc(O)c1)c1nc2sc(C)c(C)c2c(=O)[nH]1
  -6.7%, -34.2, 2.3, 10.9, -13.0

3 entries from above, as labelled records.
CCc1ccccc1NC(=O)Nc1cc(F)ccc1F
- Mtb growth: 4.7%
- Arbovirus anti: 2.7
- RecA splice inh: 3.3
- Mtb bLac sens: 0.5
- YopH PTP inh: ·

CCn1c(=O)cc(OCC(=O)Nc2ccc3c(c2)OCCO3)c2ccccc21
- Mtb growth: -0.1%
- Arbovirus anti: 0.2
- RecA splice inh: -3.1
- Mtb bLac sens: ?
- YopH PTP inh: -34.0

CSc1nnc2c(n1)OC(c1ccsc1)N(C(C)=O)c1ccccc1-2 (stereo unspecified)
- Mtb growth: 7.5%
- Arbovirus anti: 6.1
- RecA splice inh: -4.1
- Mtb bLac sens: -11.2
- YopH PTP inh: -86.3

Quoted at random: 5 entries already listed
Values run as follows: Mtb growth, Arbovirus anti, RecA splice inh, Mtb bLac sens, YopH PTP inh
- N#Cc1c(NC(=S)NC(=O)c2ccccc2)sc2c1CCCC2
  0.5%, 11.3, 0.1, 3.4, -30.1
- CCC1Nc2ccccc2-c2nnc(SC)nc2O1 (stereo unspecified)
  0.3%, 3.8, 0.8, -2.2, -18.2
- COc1ccc(C(=O)Oc2ccc(C(=S)N3CCOCC3)cc2)cc1
  7.4%, 0.0, -2.1, 5.0, ·
- O=C(c1ccc2c(c1)OCCO2)N1CCN(c2ccc([N+](=O)[O-])cc2)CC1
  1.9%, 5.0, 0.7, -1.0, ·
- CCc1ccccc1NC(=O)Nc1cc(F)ccc1F
  4.7%, 2.7, 3.3, 0.5, ·

Continuation:
Values run as follows: Mtb growth, Arbovirus anti, RecA splice inh, Mtb bLac sens, YopH PTP inh
- NS(=O)(=O)c1cccc(NC(=O)Nc2ccccc2)c1
  2.2%, ·, 0.6, -2.7, ·
- Cc1c(Br)c([N+](=O)[O-])nn1CC(=O)NCCc1ccc(Cl)cc1
  5.5%, -2.4, 1.6, -2.4, ·
- O=C(NCC1CCCO1)Nc1ccccc1 (stereo unspecified)
  -9.8%, 1.3, -1.9, -3.1, -16.8
- CC(=O)N(C)c1nc(N)n(-c2ccccc2)n1
  -5.7%, 4.2, 1.2, -0.4, ·
- CC(C)n1c(/N=C/c2ccccc2O)nc2ccccc21
  ·, ·, 0.1, 0.5, ·
- CCOC(=O)C(=NC(C)C)NNc1cc(Cl)ccc1Cl
  75.4%, -1.4, -0.2, 95.0, -22.3
- CC(C)(C)c1ccc(C(=O)NNc2ccc(F)cc2F)cc1
  ?, ·, 2.2, 92.8, ·
- COCCNC(=O)C1CCN(S(=O)(=O)c2ccc3c(c2)OCCO3)CC1
  ·, ·, 1.6, -4.1, ·
- CC(/C=N/NC(=O)c1ccc2nc(C)[nH]c2c1)=C\c1ccccc1
  0.6%, 1.4, 2.7, -7.3, -25.1
- CC(=O)n1cc([C@H]2C=C(C(=O)NCc3ccccc3)O[C@@H](OCCCCO)C2)c2ccccc21
  7.6%, 7.0, 1.4, 3.3, ·
- O=C(NNS(=O)(=O)c1ccccc1)c1cccc([N+](=O)[O-])c1
  ·, ·, -1.7, 6.0, ·
- COc1ccc(OC)c2sc(N(CCN(C)C)C(=O)c3ccc4ccccc4c3)nc12
  ·, ·, 4.5, 7.4, ·
- Cc1c(NC(=S)N/C(=N/S(=O)(=O)c2ccccc2)c2ccccc2)c(=O)n(-c2ccccc2)n1C
  -1.9%, ·, -2.4, -6.2, ·
- Cc1ccc(NC2CCCN(C(=O)c3cn(C)c4ccccc34)C2)cc1C (stereo unspecified)
  ·, ·, -2.5, -1.5, ·
- O=C(CSc1ccc(-c2cccs2)nn1)NCCc1ccccc1
  2.2%, 1.4, -4.0, -1.7, ·
- CCOc1ccccc1NC(=O)CSc1nc2nc(-c3cccs3)cc(C(F)(F)F)c2c(=O)[nH]1
  -4.6%, ·, -4.8, 4.6, ·
- O=C(c1ccc2c(c1)OCO2)C1CCCN(Cc2ccccn2)C1 (stereo unspecified)
  -6.8%, 1.6, 4.9, 18.8, ·
- CC(=NCCCn1ccnc1)c1c(O)n(C2CCCCC2)c(=O)[nH]c1=O
  -5.7%, ·, 3.4, -4.8, ·
- O=C(CCn1nc(-c2ccc(Cl)cc2)c2ccccc2c1=O)Nc1cccnc1
  4.8%, 3.2, 5.6, 21.0, ·
- CS(=O)(=O)N1CCCC(C(=O)NCc2ccc(F)cc2)C1 (stereo unspecified)
  2.3%, 11.6, -2.1, -1.7, -52.7
- NS(=O)(=O)c1ccc(NC(=S)Nc2ccc(Br)c(Cl)c2)cc1
  ?, -8.1, 4.3, 80.2, ·
- CN(C(=O)c1cncc(Br)c1)C1C2CC3CC(C2)CC1C3 (stereo unspecified)
  ·, ·, 2.2, -6.1, ·
- N#Cc1cn(Cc2cccc(Cl)c2)c2ccccc12
  4.7%, -26.6, 3.3, -1.5, -6.9
- O=C1C2C3C=CC(C2C(=O)N1c1nccs1)C1C(=O)N(c2nccs2)C(=O)C31 (stereo unspecified)
  1.1%, 1.3, 2.5, -0.6, ·
- CC(C)C[C@@H]1NC(=O)[C@H](Cc2ccc(O)cc2)NC(=O)[C@H](CCC(N)=O)NC(=O)c2cc([N+](=O)[O-])cc(I)c2NCC[C@@H](C(N)=O)NC1=O
  ·, 10.9, -0.6, 2.4, -4.8
- CC1=C(C(=O)O)N2C(=O)[C@@H](NC(=O)[C@H](N)c3ccccc3)[C@H]2SC1
  2.1%, -1.5, ·, ·, ·
- O=C(/C=C/c1cccc([N+](=O)[O-])c1)c1ccc2c(c1)OCCO2
  ?, 6.1, -0.6, 95.0, -32.7
- O=C(N/N=C/c1ccc(Cl)cc1)c1cc(-c2cccnc2)nc2ccccc12
  3.8%, -14.1, 5.2, -1.8, ·
- CN(Cc1ccccc1)C(=S)Nc1cccnc1
  8.0%, 15.1, 13.8, 5.2, ·
- Nc1ccc(C(=O)NCCCSc2ccccc2)cc1[N+](=O)[O-]
  ·, ·, -1.2, -4.1, ·

Entries of single compounds as entered above.
`CC(C)n1c(/N=C/c2ccccc2O)nc2ccccc21` is entered as Mtb growth: ·; Arbovirus anti: ·; RecA splice inh: 0.1; Mtb bLac sens: 0.5; YopH PTP inh: ·
`CCC1Nc2ccccc2-c2nnc(SC)nc2O1` (stereo unspecified) is entered as Mtb growth: 0.3%; Arbovirus anti: 3.8; RecA splice inh: 0.8; Mtb bLac sens: -2.2; YopH PTP inh: -18.2
